High-throughput results deposited in PubChem BioAssay by National Center for Advancing Translational Sciences (NCATS).
RE007 growth inh: qHTS Assay for Inhibitors of the HIV-1 protein Vpr; S. pombe RE007 Vpr strain, BacTiter-Glo ATP luminescence, 24 h; control for the full effect not named in the record; Potency, µM (series often up to 92.2 µM), for inactives: top-dose activity change, negative = less growth; AID 651644, 2012; 360,000 compounds, 0.21% hits; active = well fitted falling curve with a large enough effect; inconclusive = small, poorly fitted or top-dose-only effect; inactive = no such curve, though single readings can be large or run the other way;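 also: % is scaled to controls: 0 for no effect and ±100 for the full control effect; nearly all actives have a fitted effect of over 50% in size; the assay follows cell death caused by Vpr and the record does not say whether a fall means rescue or toxicity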
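Fission yeast strain RE007, carrying one chromosomally integrated HIV-1 vpr copy, was seeded at OD 0.01 in PMG+AL medium with 23 nL pinned compound. After 24 h at 30 °C and 99% humidity, viability was read by BacTiter-Glo luminescence.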
LASV entry inh: qHTS for Inhibitors of binding or entry into cells for Lassa Virus; 300,000 compounds, 1.2% hits; AID 540256, 2011; Lassa virus pseudotype entry inhibition, cell reporter; control for the full effect not named in the record; Potency, µM (top dose mostly 37.9 µM), for inactives: top-dose activity change, negative = inhibition, actives largely listed as inhibitors; active means well fitted inhibition curve with a large enough effect; inconclusive means small, poorly fitted or top-dose-only effect, or effect the other way; inactive means flat fitted curve, though single readings scatter; tested in HEK293 cells; also: % is scaled to controls: 0 for no effect and ±100 for the full control effect; nearly all actives have a fitted effect of over 50% in size; luciferase read-out
Cruzain noTriton: qHTS Assay for Promiscuous and Specific Inhibitors of Cruzain (without detergent). AID 1476, 2009. purified cruzain, Z-FR-AMC fluorescence, no detergent. Cruzipain (Trypanosoma cruzi), P25779. 200,000 compounds, 2.3% hits. Potency, µM, without a hit: max response, negative = inhibition, actives largely listed as inhibitors; active = well fitted curve in the direction sought with a large enough effect; inconclusive = small, poorly fitted or top-dose-only effect, or another doubt; inactive = no such curve, though single readings can be large; an effect the other way counts as inactive or inconclusive;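 also: plate controls were enzyme without inhibitor for no effect and buffer without enzyme for full effect; nearly all actives have a fitted effect of over 40% in size; top concentration of the series not given in the record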
Target sequence (P25779 123-467 limits assumed): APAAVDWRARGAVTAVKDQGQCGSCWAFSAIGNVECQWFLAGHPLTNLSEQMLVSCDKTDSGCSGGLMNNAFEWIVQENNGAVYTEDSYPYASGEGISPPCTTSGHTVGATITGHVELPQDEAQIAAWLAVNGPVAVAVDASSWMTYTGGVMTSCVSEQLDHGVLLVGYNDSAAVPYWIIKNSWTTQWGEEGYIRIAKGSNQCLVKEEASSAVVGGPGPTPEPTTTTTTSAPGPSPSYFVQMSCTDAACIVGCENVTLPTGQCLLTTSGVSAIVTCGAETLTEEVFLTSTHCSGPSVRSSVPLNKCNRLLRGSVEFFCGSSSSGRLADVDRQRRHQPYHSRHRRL
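Purified cruzain at 1.5 nM, pre-incubated 15 min with compound at room temperature in 100 mM sodium acetate pH 5.5, 5 mM DTT, 0.00005% Triton X-100. Reaction started with 2 uM Z-FR-AMC; AMC fluorescence increase over 60 s gives rate.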
StopGo reporter: High Throughput Screening for Foot and Mouth Disease Virus Antivirals | human cells with a luciferase reporter of 2A StopGo recoding; control for the full effect not named in the record | Potency, µM (top dose mostly 57.9 µM), for inactives: top-dose signal change, negative = less light | 410,000 compounds, 1.2% hits; active = well fitted falling curve with a large enough effect; inconclusive = small, poorly fitted or top-dose-only effect; inactive = no such curve, though single readings can be large or run the other way; tested in HEK293T cells; also: % is scaled to controls: 0 for no effect and ±100 for the full control effect; nearly all actives have a fitted effect of over 45% in size; luciferase light after 4 h
NS1 function inh: qHTS Assay for Inhibitors of Influenza NS1 Protein Function | S. cerevisiae slowed by influenza A NS1, growth recovery by OD600 | 270,000 compounds, 0.4% hits | AID 2326, 2010 | Potency, µM (doses to about 46.1 µM), for the others: at the top dose activity, positive = more growth; also: actives are rising curves; nearly all actives have a fitted effect of over 50% in size
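Recovery from NS1-induced slow growth read by OD600 in budding yeast switched to galactose assay medium (pH 6.0, -URA) at 1:100 dilution. Compound 23 nl per well; the matching strain lacking NS1 serves as control.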
Cruzain inh Det: qHTS Assay for Promiscuous and Specific Inhibitors of Cruzain (with detergent); Cruzipain (Trypanosoma cruzi), P25779; purified cruzain, Z-FR-AMC fluorescence, 0.01% Triton; AID 1478, 2009; 200,000 compounds, 0.43% hits; Potency, µM, for inactives: max response, negative = inhibition, actives largely listed as inhibitors; active = well fitted curve in the direction sought with a large enough effect; inconclusive = small, poorly fitted or top-dose-only effect, or another doubt; inactive = no such curve, though single readings can be large; an effect the other way counts as inactive or inconclusive;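 also: plate controls were neutral wells for no effect and buffer without enzyme for full effect; nearly all actives have a fitted effect of over 40% in size; top concentration of the series not given in the record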
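Detergent-containing run (0.01% Triton X-100) in acetate buffer pH 5.5 with 5 mM DTT: enzyme at 1.5 nM final, 15 min compound preincubation at room temperature, then 2 uM Z-FR-AMC substrate. Activity taken as 60 s fluorescence increase at 360/450 nm.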
MARV entry inh: qHTS for inhibitors of binding or entry into cells for Marburg Virus; 300,000 compounds, 1.8% hits; AID 540276, 2011; Potency, µM (top dose mostly 37.8 µM), inactives show top-dose activity change, negative = inhibition, most hits filed as inhibitors; Marburg virus pseudotyped entry inhibition, cell reporter; control for the full effect not named in the record; about a third of the inactives were read at about 46 µM; active = well fitted inhibition curve with a large enough effect; inconclusive = small, poorly fitted or top-dose-only effect, or effect the other way; inactive = flat fitted curve, though single readings scatter; tested in HEK293 cells; about a fifth of its hits are not listed in these tables; also: % is scaled to controls: 0 for no effect and ±100 for the full control effect; luciferase read-out
SARS PLP yeast: qHTS of Yeast-based Assay for SARS-CoV PLP; S. cerevisiae expressing SARS-CoV PLpro, growth rescue; control for the full effect not named in the record; Potency, µM (highest dose often 32.9 µM), for the others: at the top dose activity, positive = growth rescue; 330,000 compounds, 0.19% hits; AID 485353, 2010; also: 0% is about no effect; nearly all actives have a fitted effect of over 55% in size; growth read by luminescence after 48 h
* = called active by the depositor; [ ] = remark or other dose. Unless noted, calls follow the shape of the dose curve; as a rule, active means well fitted rising curve with a large enough effect; inconclusive means small, poorly fitted or top-dose-only effect; inactive means no such curve, though single readings can be large or run the other way. Potency is read from the fitted curve at half-maximal effect.

How did COc1ccc(S(=O)(=O)Nc2ccccc2C(=O)NCc2cccnc2)cc1OC do in these assays?
RE007 growth inh: -24%; LASV entry inh: 4%; StopGo reporter: -8%; NS1 function inh: inconclusive; MARV entry inh: -7%[46.1 µM]; SARS PLP yeast: 3%

What do the screens show for `O=C(NCCc1c[nH]c2ccccc12)C(=O)NCC1OCCCN1S(=O)(=O)c1ccc(F)cc1` (centres undefined)?
RE007 growth inh: -2%; LASV entry inh: inconclusive; Cruzain noTriton: inconclusive; StopGo reporter: inconclusive; NS1 function inh: 3%; Cruzain inh Det: -7.6%; MARV entry inh: -35%; SARS PLP yeast: 29%

How did CCCc1cc(C(=O)OC)c(NC(=O)OCC)s1 do in these assays?
RE007 growth inh: -12%; LASV entry inh: -1%; Cruzain noTriton: -11%; StopGo reporter: 13%; NS1 function inh: -6%; Cruzain inh Det: -9.5%; MARV entry inh: -1%; SARS PLP yeast: -1%

How did Cc1ccc(S(=O)(=O)N2CCCC2C(=O)Nc2ccc(Br)cc2)cc1 (centres undefined) do in these assays?
LASV entry inh: 11%[46.1 µM]; Cruzain noTriton: -1%; StopGo reporter: -19%; Cruzain inh Det: -7.1%; MARV entry inh: -4%[46.1 µM]

Results for Cc1ccccc1CNC(=O)CCC(=O)N1Cc2ccccc2Oc2ncccc21 ?
RE007 growth inh: 0%; StopGo reporter: 3%; NS1 function inh: 6%; SARS PLP yeast: -1%

Results for COc1ccc2[nH]c(N=Nc3ccccc3C)c(O)c2c1 ?
RE007 growth inh: -16%; LASV entry inh: inconclusive; Cruzain noTriton: -25%; StopGo reporter: 10%; NS1 function inh: 3%; Cruzain inh Det: -3.4%; MARV entry inh: 29%; SARS PLP yeast: 1%

Results for O=C(Nc1ccon1)c1ccc(Cl)s1 ?
RE007 growth inh: 4%; LASV entry inh: 3%; Cruzain noTriton: -6%; StopGo reporter: 15%; NS1 function inh: -1%; Cruzain inh Det: 1.4%; MARV entry inh: -3%; SARS PLP yeast: -15%

How did COCCNc1ncnc2c1[nH]c1ccccc12 do in these assays?
RE007 growth inh: -12%; LASV entry inh: -5%; StopGo reporter: inconclusive; NS1 function inh: -3%; MARV entry inh: -12%; SARS PLP yeast: 0%

What do the screens show for `Cc1ccc2c(c1)c1c(c(=O)n(-c3cccc(Cl)c3)c(=O)n1CC(=O)N1CCCC1)n2C`?
LASV entry inh: 4%[46.1 µM]; Cruzain noTriton: -12%; StopGo reporter: -20%; Cruzain inh Det: 0.0%

Results for Cc1nc2cc(-c3cccc(F)c3)nn2c(C)c1CCC(=O)NC(C)CCc1ccco1 (centres undefined) ?
RE007 growth inh: -11%; Cruzain noTriton: inconclusive; StopGo reporter: inconclusive; NS1 function inh: -50%; Cruzain inh Det: -22%; SARS PLP yeast: -10%

What do the screens show for `CN1C(=O)C(C)(C)c2cc(S(=O)(=O)N3CCN(c4cccc(Cl)c4)CC3)ccc21`?
RE007 growth inh: -1%; StopGo reporter: -30%; NS1 function inh: 12%; SARS PLP yeast: -8%

How did Nc1ccc2c(c1)-c1ccccc1S(=O)(=O)N2 do in these assays?
RE007 growth inh: -2%; LASV entry inh: -3%; Cruzain noTriton: -12%; StopGo reporter: -1%; NS1 function inh: 16%; Cruzain inh Det: -4.9%; MARV entry inh: 2%; SARS PLP yeast: 7%

Results for CCC1(C)Cc2c(sc3nc(SC)[nH]c(=O)c23)CO1 (centres undefined) ?
RE007 growth inh: 3%; LASV entry inh: 18%; StopGo reporter: 6%; NS1 function inh: -4%; MARV entry inh: 0%[46.1 µM]; SARS PLP yeast: -1%

What do the screens show for `COc1ccc(C(=O)Nc2cccc(-c3nnc(-c4ccco4)o3)c2)cc1`?
RE007 growth inh: -14%; LASV entry inh: -17%; Cruzain noTriton: 3%; StopGo reporter: 35µM*; NS1 function inh: -17%; Cruzain inh Det: -0.9%; MARV entry inh: inconclusive; SARS PLP yeast: -19%

How did Cc1cccc(-n2c(SCc3cc(=O)n4ccsc4n3)nc3ccccc32)c1 do in these assays?
RE007 growth inh: 7%; LASV entry inh: 22%; Cruzain noTriton: inconclusive; StopGo reporter: 0%; NS1 function inh: 13%; Cruzain inh Det: -16%; MARV entry inh: 9%; SARS PLP yeast: -19%

What do the screens show for `Cc1c(C(=O)NCC2COc3ccccc3O2)oc2ccc(S(=O)(=O)N3CCOCC3)cc12` (centres undefined)?
RE007 growth inh: 28%; LASV entry inh: inconclusive; Cruzain noTriton: 10%; StopGo reporter: inconclusive; NS1 function inh: -46%; Cruzain inh Det: -2.9%; MARV entry inh: inconclusive; SARS PLP yeast: 1%

What do the screens show for `O=C(Oc1cccc(C(=S)N2CCOCC2)c1)c1ccc([N+](=O)[O-])cc1`?
RE007 growth inh: 6%; LASV entry inh: 5%; StopGo reporter: -9%; NS1 function inh: -10%; MARV entry inh: inconclusive; SARS PLP yeast: -3%

How did Cc1ccc(Sc2ncccc2C(=O)NCc2cc([N+](=O)[O-])ccc2O)c(C)c1 do in these assays?
RE007 growth inh: 3%; StopGo reporter: -4%; NS1 function inh: -81%; SARS PLP yeast: -10%

What do the screens show for `CCOc1ccc(CN2CCNC(=O)C2CC(=O)NCc2ccccn2)cc1` (centres undefined)?
RE007 growth inh: 16%; LASV entry inh: 10%; StopGo reporter: 29%; NS1 function inh: 2%; MARV entry inh: -8%[46.1 µM]; SARS PLP yeast: 0%

How did Cc1ccc(C(=O)CSc2nc3ccc(C(=O)NCCN4CCCCC4)cc3c(=O)[nH]2)cc1 do in these assays?
RE007 growth inh: 5%; StopGo reporter: -6%; NS1 function inh: -5%; SARS PLP yeast: 1%

How did COc1cc(C)c(-c2cc(C(=O)O)c(C)o2)cc1C(C)C do in these assays?
RE007 growth inh: 8%; LASV entry inh: 10%; Cruzain noTriton: 17%; StopGo reporter: -13%; NS1 function inh: -60%; Cruzain inh Det: -5.3%; MARV entry inh: inconclusive; SARS PLP yeast: -8%

What do the screens show for `CCCCCCNC(=O)c1cc(-c2ccco2)nc2ccccc12`?
RE007 growth inh: 34%; LASV entry inh: -1%; Cruzain noTriton: inconclusive; StopGo reporter: -28%; NS1 function inh: 27%; Cruzain inh Det: inconclusive; MARV entry inh: -25%; SARS PLP yeast: -24%

Results for O=C(CCl)N(O)c1ccc(C=Cc2ccccc2)cc1 ?
RE007 growth inh: 3%; LASV entry inh: 8.9µM*; StopGo reporter: 20%; MARV entry inh: inconclusive

How did Cc1cc2oc(=O)cc(COC(=O)Cn3cnnn3)c2cc1C(C)C do in these assays?
RE007 growth inh: 4%; LASV entry inh: -5%; Cruzain noTriton: -11%; StopGo reporter: -24%; NS1 function inh: -23%; Cruzain inh Det: -7.2%; MARV entry inh: -16%; SARS PLP yeast: -24%

Results for Cc1ccnc(SCC(=O)c2cccs2)n1 ?
RE007 growth inh: -4%; LASV entry inh: inconclusive; StopGo reporter: 11%; NS1 function inh: 13%; MARV entry inh: inconclusive; SARS PLP yeast: 3%

What do the screens show for `CC(C)CN1CCC(=O)N([C@H](CSc2ccc(Br)cc2)c2ccccc2)CC1`?
RE007 growth inh: 9%; StopGo reporter: 10%; NS1 function inh: -2%; SARS PLP yeast: -1%

What do the screens show for `Cc1cccc(COc2ccc(/C=N/NC(=O)c3nnn(-c4nonc4N)c3C)cc2)c1`?
RE007 growth inh: -14%; StopGo reporter: 26%; NS1 function inh: -15%; SARS PLP yeast: -2%

How did Cc1ccc(CNC(=O)C2CCCN(S(=O)(=O)c3ccc(-n4cnnn4)cc3)C2)cc1 (centres undefined) do in these assays?
RE007 growth inh: -5%; LASV entry inh: 1%[46.1 µM]; StopGo reporter: -3%; NS1 function inh: 2%; MARV entry inh: 6%[46.1 µM]; SARS PLP yeast: 0%

Results for O=C(O)C1(Br)CC12c1ccccc1-c1ccccc12 (centres undefined) ?
RE007 growth inh: -5%; LASV entry inh: 8%[46.1 µM]; StopGo reporter: 0%; MARV entry inh: 6%

Results for CCS(=O)(=O)N1CCN(C2CCC(c3ccccc3)CC2)CC1 (centres undefined) ?
Cruzain noTriton: 6%; NS1 function inh: -11%; Cruzain inh Det: 2.5%; MARV entry inh: -1%; SARS PLP yeast: inconclusive

What do the screens show for `COc1cccc(C(=O)/C=C2\Sc3ccccc3N2C)c1`?
RE007 growth inh: inconclusive; LASV entry inh: inconclusive; StopGo reporter: -7%; MARV entry inh: inconclusive; SARS PLP yeast: -3%

How did CC(C)(C)C(=O)Nc1ccc(C(=O)N/N=C/c2ccccc2OC(=O)c2ccc(Cl)cc2Cl)cc1 do in these assays?
RE007 growth inh: -5%; LASV entry inh: inconclusive; Cruzain noTriton: inconclusive; StopGo reporter: -25%; NS1 function inh: inconclusive; Cruzain inh Det: -4.2%; MARV entry inh: inconclusive; SARS PLP yeast: 4%

What do the screens show for `CC1=Nc2ccccc2/C1=C/c1c(O)n(C)c(=O)[nH]c1=O`?
RE007 growth inh: 5%; LASV entry inh: 6%; StopGo reporter: 32µM*; NS1 function inh: 0%; MARV entry inh: inconclusive; SARS PLP yeast: 2%

Results for Cc1cccc(-n2c(Cc3cc(=O)[nH]c(=O)[nH]3)nnc2SC(C)C)c1 ?
RE007 growth inh: 0%; Cruzain noTriton: -2%; StopGo reporter: -4%; NS1 function inh: -7%; Cruzain inh Det: -3.5%; SARS PLP yeast: 14%

Results for CCOc1ccc(C(Nc2cccnc2)c2cc(Cl)c3cccnc3c2O)cc1 (centres undefined) ?
RE007 growth inh: inconclusive; LASV entry inh: inconclusive; StopGo reporter: -14%; NS1 function inh: 13%; MARV entry inh: inconclusive; SARS PLP yeast: -6%
